Screening data (PubChem)
ClpP mod = qHTS Assay for Activators of ClpP | purified B. subtilis ClpP, FRET peptide cleavage, 20 min | ATP-dependent Clp protease proteolytic subunit (Bacillus subtilis (strain 168)), P80244 | Potency, µM (titrated, usually from 57.5 µM), for inactives: at the top dose activity change, negative = active | AID 651965, 2013 | 1.9% of 340,000 active; active = well fitted falling curve with a large enough effect; inconclusive = small, poorly fitted or top-dose-only effect; inactive = no such curve, though single readings can be large or run the other way; also: potency is read from the fitted curve at half-maximal effect; the source files actives as falling curves though it sought activators and does not explain the sign; nearly all actives have a fitted effect of over 65% in size; many hits overshoot -100%
Target sequence (P80244 whole entry, looked up): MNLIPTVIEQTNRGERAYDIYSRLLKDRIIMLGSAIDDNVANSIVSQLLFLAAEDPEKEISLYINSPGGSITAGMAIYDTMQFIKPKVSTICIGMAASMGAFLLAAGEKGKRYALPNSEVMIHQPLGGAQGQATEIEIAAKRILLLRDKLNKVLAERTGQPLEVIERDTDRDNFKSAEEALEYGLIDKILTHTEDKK
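Purified B. subtilis ClpP, 10 microg/mL final in Tris/HCl pH8 with KCl, BSA, glycerol and Tween-20, cleaved an Abz/nitrotyrosine-quenched decapeptide. Fluorescence (ex 320, em 430) was read at 0 and 20 min at room temperature. Delta was normalized to 5.8 microM ADEP and DMSO/no-enzyme controls.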
gsp agonist = activates gsp, the McCune-Albright syndrome mutation | Potency, µM (titrated, usually from 76.9 µM), inactives show at the top dose activation (cAMP increase), most hits filed as activators | 0.13% of 340,000 active | gsp mutant cells, cAMP HTRF, 30 min; control for the full effect not named in the record; active = well fitted activation curve with a large enough effect; inconclusive = small, poorly fitted or top-dose-only effect, or another doubt; inactive = no such curve, though single readings can be large or run the other way; cell line not stated here;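 also: phosphodiesterase inhibitor Ro 20-1724 added with compounds to block cAMP breakdown; potency is read from the fitted curve at half-maximal effect; nearly all actives have a fitted effect of over 60% in size; about a fifth of the inactives were tested at one dose only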
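Cells in DMEM/10% FBS with G418 were pretreated with compounds in DMSO plus […] (300 uM stock) for 30 min at 37C. cAMP was measured by HTRF (cAMP-d2 plus anti-cAMP antibody-K) after 30 min at room temperature.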
Menin-MLL FL inh = inhibitors of human menin-MLL interaction, wild-type MLL peptide | FP activity change, % at 61.4 µM | Fluorescence polarization, fluorescein-MLL peptide displacement from menin | 290,000 tested, under 10 active; inconclusive = falling polarisation curve, or a change in total fluorescence; inactive = total fluorescence flat and polarisation flat or rising; no compound was filed as active; the % refers to the polarisation; negative = inhibition;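 also: % of control where 0% means no effect; inhibitors lower the polarisation; unlabelled MLL peptide was the positive control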
TRPML1 inh = inhibitors of human TRPML1 channel. Q9GZU1. TRPML1-inducible cells, Ca2+ dye fluorescence, FDSS; active compounds read low; inhibition of EC80 agonist-evoked calcium signal. activity change, negative = inhibition, % (test concentration not listed). 0.02% of 390,000 active. AID 624415; in the data active means activity change below about -50%; inconclusive means about -30% to -50%; inactive means above about -30%;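 also: stimulus is agonist 54-4 at its EC80 concentration; % is scaled to controls: 0 for no effect and ±100 for the full control effect; compound concentration not given in the record; the text of the record puts the active cut at -80%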
Target sequence (Q9GZU1 whole entry, looked up): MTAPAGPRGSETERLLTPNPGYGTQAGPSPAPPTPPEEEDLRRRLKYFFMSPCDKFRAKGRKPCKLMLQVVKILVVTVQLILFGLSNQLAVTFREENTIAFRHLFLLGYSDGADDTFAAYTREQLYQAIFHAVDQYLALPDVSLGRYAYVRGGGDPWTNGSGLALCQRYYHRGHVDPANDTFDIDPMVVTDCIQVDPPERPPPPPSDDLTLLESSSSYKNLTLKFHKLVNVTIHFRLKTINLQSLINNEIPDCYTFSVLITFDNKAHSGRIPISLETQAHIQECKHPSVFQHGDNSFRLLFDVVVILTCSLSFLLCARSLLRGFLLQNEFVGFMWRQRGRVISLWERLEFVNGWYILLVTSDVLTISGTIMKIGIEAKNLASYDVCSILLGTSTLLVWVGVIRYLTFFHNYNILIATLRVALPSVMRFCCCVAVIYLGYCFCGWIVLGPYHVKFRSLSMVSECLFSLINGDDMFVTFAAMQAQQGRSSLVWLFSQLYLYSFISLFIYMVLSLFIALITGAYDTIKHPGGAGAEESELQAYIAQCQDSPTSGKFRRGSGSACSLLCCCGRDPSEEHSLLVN
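Tet-induced TRPML1-DL cells loaded with Ca8 no-wash calcium dye were read kinetically on FDSS. Compound addition was followed by EC80 agonist 54-4 (4 uM final); inhibition was read over 110 s.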
TRPML1 agonist = agonists of human TRPML1 channel; 0.12% of 410,000 active; Q9GZU1; TRPML1-expressing cells, Ca2+ dye fluorescence, FDSS; host cell line not named in the record; reference of the full effect not given here; AID 624414; activation, % (concentration not given with the values); in the data active = activation above about 50%; inconclusive = about 30% to 50%; inactive = below about 30%; also: 0% is about no effect; the text of the record puts the active cut at 80%
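Cells: TRPML1-DL, 1X Tet inducer, ~16 h at 37 degrees C/5% CO2. Dye: ABD Ca8 no-wash + quencher, 45-90 min RT. Read: 10 s baseline, compound add, 110 s agonist phase; 54-4 EC80 (4uM final), 110 s antagonist phase.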
gsp antagonist = gsp mutant antagonism | gsp-mutant cells, cAMP HTRF, 30 min; control for the full effect not named in the record | Potency, µM (highest dose often 76.9 µM), for inactives: at the top dose activity change, negative = inhibition, usual class: inhibitors | 0.4% of 340,000 active; active = falling curve of any shape with a large fitted effect; inconclusive = falling curve, mostly with a smaller effect; inactive = flat or rising curve; cell line not stated here;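 also: intracellular cAMP measured with PDE inhibitor Ro 20-1724 present during compound exposure; potency is read from the fitted curve at half-maximal effect; % is scaled to controls: 0 for no effect and ±100 for the full control effect; nearly all actives have a fitted effect of over 65% in size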
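Cells in G418 medium, seeded 16-24 h, 37C; buffer exchange to DPBS + 1 mM CaCl2, 0.5 mM MgCl2, 0.05% BSA; cpds in DMSO + […] (300 uM stock), 30 min 37C; HTRF cAMP detection.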
Numbers without * were called inactive; ? = inconclusive; · = no result given; [ ] = remark or other dose. Hits appear at their usual frequency; about 2.1% have a hit in one of these screens.

SMILES	TRPML1 agonist	gsp antagonist	gsp agonist	TRPML1 inh	ClpP mod	Menin-MLL FL inh
COc1ccc(C(=O)COC(=O)CCc2ccccc2)cc1	1.5	2%	9%[15.4 µM]	22	·	-5.1
COc1ccc(C(=O)O)cc1S(=O)(=O)N1CCN(c2ccccn2)CC1	0.8	14%	26%	34	·	4.1
CC(=O)c1ccc(N2CCN(C(=O)c3cc4cc5cc(C)ccc5nc4s3)CC2)cc1	-0.1	·	·	16	1.0%	·
Cc1cc(=O)oc2cc(OC(=O)c3ccco3)ccc12	1.4	-21%	?	0	4.6%	0.1
CCC(C)NC(=O)C1CCCCN1S(=O)(=O)c1ccc(F)cc1 (stereo not drawn)	-0.3	-4%	-10%	-4	0.2%	-3.9
CCC(=O)Nc1nnc(CSCc2ccccc2)s1	0.0	2%	15%	15	0.6%	0.6
O=C(O)c1nn2c(c1Br)NC(c1ccccc1)CC2C(F)(F)F (stereo not drawn)	0.3	-3%	44%	40	0.6%	2.2
CCn1cc(/C=N/NC(=O)c2ccc(C#N)cc2F)c2ccccc21	0.2	-14%	-22%	38	0.2%	-1.6
CC(=O)c1cccc(NC(=O)Cn2cnc(S(=O)(=O)N3CCCC3)c2)c1	0.0	13%	-15%	-3	-4.6%	3.8
O=C(N/N=C/c1ccc(Cl)c([N+](=O)[O-])c1)c1ccc2nc[nH]c2c1	-0.1	-7%	-2%	-13	-0.2%	0.1
CC(O/N=C\c1ccccc1O)C(=O)Nc1ccccc1C(=O)N1CCOCC1 (stereo not drawn)	-0.3	4%	2%	4	-2.8%	·
CC1CCCC(NC(=O)CNCc2ccccc2F)C1C (stereo not drawn)	-1.1	6%	-3%[15.4 µM]	-17	1.1%	2.8
COCC(=O)Nc1ccc2c(c1)OCC(=O)N2Cc1ccc(C)cc1	0.3	-4%	4%	-5	-0.7%	-0.7
COc1ccc(C=C(c2ccc(OC)cc2)c2ccc(OC)cc2)cc1	1.1	-9%	21%	10	32µM*	0.3
COC(=O)C1=C(N)Oc2cc(N(C)C)ccc2C1c1ccccc1OC (stereo not drawn)	4.1	14%	23%	6	-0.3%	1.7
CCC1CCCCN1C(=O)CCS(=O)(=O)c1cc2c(cc1C)NC(=O)CO2 (stereo not drawn)	4.5	·	·	-5	1.8%	·
CCCc1cc(=O)[nH]c(SCC(=O)Nc2cc(S(=O)(=O)N3CCCCC3)ccc2C)n1	1.4	-16%	-3%	-1	-0.3%	·
O=C(NC(=S)NNC(=O)c1cccs1)c1ccccc1	-0.3	13%	-25%	-10	1.6%	·
Cc1ccc(-c2noc(C3CCN(S(=O)(=O)c4ccc5c(c4)OCCO5)CC3)n2)o1	0.0	?	3%	-1	-2.4%	-0.5
CCN1CCN(c2ncnc3c2cnn3-c2ccc(C)c(C)c2)CC1	0.9	·	·	-9	-24%	·
Cn1cnnc1SCC(=O)OCN1C(=O)c2ccccc2C1=O	0.4	2%	6%	-16	-16%	0.9
Cc1cc(=O)n2c3ccccc3n(CC(O)CN3CCCC3)c2c1C#N (stereo not drawn)	0.2	-5%	-2%	-9	?	1.8
CCC(Cc1ccccc1)NS(=O)(=O)c1ccc2c(c1)NC(=O)CS2 (stereo not drawn)	1.1	-12%	10%	-6	-1.0%	·
CCCc1nnc(SCC(=O)N2C(C)CCCC2C)n1CC1CCCO1 (stereo not drawn)	0.5	0%	-47%[inhibitor]	4	-2.1%	-0.7
CCCNC(=O)C1(C)CCN(Cc2ccc(OC)c3ccccc23)C1 (stereo not drawn)	0.9	·	·	24	-20%	·

Results in gsp agonist and Menin-MLL FL inh, for two of the compounds above:
canonical_smiles	gsp agonist	Menin-MLL FL inh
CCC(C)NC(=O)C1CCCCN1S(=O)(=O)c1ccc(F)cc1 (stereo not drawn)	-10%	-3.9
CCC(=O)Nc1nnc(CSCc2ccccc2)s1	15%	0.6

Going on with the list:
SMILES	TRPML1 agonist	gsp antagonist	gsp agonist	TRPML1 inh	ClpP mod	Menin-MLL FL inh
Cc1ccc(S(=O)(=O)N(C)c2ccc(OC(=O)CN3C(=O)NC4(CCCC4)C3=O)cc2)cc1C	1.2	4%	16%	-6	-9.4%	·
CCOc1ccccc1CNC(=O)c1ccc2c(c1)sc1nc(-c3ccccc3)cn12	0.8	·	·	-9	4.6%	·
COc1ccccc1C(=O)Nc1ccc2nc3n(c(=O)c2c1)CCCC3	2.0	-14%	-12%	17	-0.4%	0.9
COc1cc2c(cc1NCc1ccccn1)oc1ccccc12	1.7	-20%	-59%[inhibitor]	6	28µM*	0.2
CCc1cccc(C)c1NC(=O)CSc1nc(C)c(C)o1	0.3	5%	-1%	-7	1.2%	·
CC1C(c2ccc3c(c2)OCO3)c2cc3c(cc2OC1N1CCOCC1)OCO3 (stereo not drawn)	1.9	-3%	1%	28	24%	·
Cc1cc(C)cc(NC(=S)NCc2ccc3c(c2)OCO3)c1	-0.1	5%	4%	-12	0.5%	·
CN(c1ccccc1)C(c1ccc(F)cc1)c1nnnn1C1CCCC1 (stereo not drawn)	-0.3	3%	13%	21	1.1%	2.9
CC(C)NS(=O)(=O)c1ccc(OCC(=O)N2CCCC2)c(Cl)c1	0.4	5%	23%	0	-0.8%	2.9
CC(Sc1nc2c(cc1C#N)CCCCC2)C(=O)O (stereo not drawn)	1.1	-12%	-18%	-2	·	-5.0
O=C(NC1CC1)c1cccc(Nc2ccc(-c3ccc4c(c3)OCCO4)nn2)c1	1.8	32µM*	-18%	36	-0.3%	6.5
CN(CC(=O)Nc1ccc(Cl)c(C(F)(F)F)c1)C(=O)CCNC(=O)c1ccco1	-0.6	10%	-24%	22	1.7%	·
CCOc1ccc(NC(=O)Cn2c(=O)n(-c3ccccc3)c(=O)c3ccc(C(=O)NCc4ccc5c(c4)OCO5)cc32)cc1	1.0	·	·	12	-6.3%	·
COC(=O)c1cc2n(n1)CCN(Cc1ccccc1F)C2=O	-0.3	12%	-6%	-13	-1.5%	4.7
CCOC(=O)c1c(-c2ccccc2)csc1NC(=O)c1cc(-c2cccc(Cl)c2)on1	-0.1	·	·	31	-0.2%	·
O=C(Nc1ccc(F)cc1)Nc1ccccc1NS(=O)(=O)c1cccs1	-0.8	-14%	-8%	3	1.0%	3.0
Cc1sc2c(c1C)c(=O)n(CCc1ccccc1)c(=O)n2Cc1ccc(C(C)(C)C)cc1	1.3	·	·	?	0.0%	·
O=C(COC(=O)c1ccc(Cl)c([N+](=O)[O-])c1)NC1CCCC1	0.8	-1%	4%	-3	1.2%	-3.7
CN(CCOc1ccc(Br)cc1)CC(O)COc1ccc(C#N)cc1 (stereo not drawn)	0.8	1%	-60%[inhibitor]	-16	2.5%	-3.0
Cc1cc(C)n2nc(C(=O)NC(c3ccccc3)c3ccccc3)nc2n1	1.1	-8%	10%[15.4 µM]	34	-27%	0.7
CC1CCN(Cc2csc(N)n2)CC1	-0.3	5%	18%	-11	0.1%	2.0
Cc1ccc(N(C(=O)c2snc(C(N)=O)c2N)C(C(=O)NC2CCCC2)c2ccc(C)o2)cc1 (stereo not drawn)	3.3	-17%	16%	29	·	0.1
CCN(CC)C(=O)CCc1nc2sc3c(c2c(=O)[nH]1)CCCC3	1.8	-12%	25%	5	-5.8%	2.4
O=C(NCCS(=O)(=O)N1CCN(Cc2ccccc2)CC1)c1ccc(F)cc1	-0.8	6%	-24%[15.4 µM]	-4	·	·
CC(C)(C)C1CCc2c(C(=O)NNC(=O)CCC(=O)O)csc2C1 (stereo not drawn)	0.0	13%	16%	-16	1.0%	1.1
CCCCC(=O)Nc1nnc(SCC(=O)NC2CC2)s1	0.1	-14%	-16%[15.4 µM]	-9	·	-5.4
COc1ccccc1C(c1nnnn1C(C)(C)C)N1CCCCCC1 (stereo not drawn)	0.9	-5%	-1%	-17	-0.5%	4.6
Cc1nn(-c2ccccc2)c(Cl)c1C(=O)OCC(=O)N(C)c1c(N)n(Cc2ccccc2)c(=O)[nH]c1=O	-0.4	-7%	19%	34	0.3%	·
CCOc1ccc(NC(=O)CSc2oc(-c3ccc(C)cc3)nc2S(=O)(=O)c2ccc(C)cc2)cc1	2.6	·	·	?	0.3%	·
CCCCSc1nnc2n(CCc3ccccc3)c(=O)c3c4c(sc3n12)COC(C)(C)C4	0.5	5%	?	58	-3.6%	1.1
CCOc1ccc(NC(=O)Cn2c(=O)n(CCCC(=O)NCCc3ccc(Cl)cc3)c(=O)c3ccccc32)cc1	0.0	·	·	-12	2.3%	·
COc1ccc(-c2noc(N3CCC(C(=O)N4CCN(c5ccccn5)CC4)CC3)n2)cc1	1.2	?	-10%	35	?	1.5
CC(C)Sc1nc2ccccc2n1CC(=O)NCc1ccc2c(c1)OCO2	1.1	0%	-4%	13	-1.2%	2.6
O=C(CN(Cc1cccs1)C(=O)CNS(=O)(=O)c1ccc(F)cc1)NCc1ccco1	1.3	1%	22%	0	3.2%	0.8
NC(=S)n1[nH]c(-c2ccccc2)c(N=Nc2ccccc2C(=O)N2CCOCC2)c1=O	0.2	-26%	23%[15.4 µM]	-23	·	0.8
CSc1ncccc1C(=O)OCC(=O)N(C)C1CCS(=O)(=O)C1 (stereo not drawn)	-0.7	-5%	-17%	-7	1.1%	2.1
O=C(c1ccc(Cl)c(Cl)c1)N1CCC(=O)N(C(COCc2ccc(Cl)cc2)Cc2ccccc2)CC1 (stereo not drawn)	2.3	-8%	9%	64	-0.4%	0.6
CCOc1ncccc1C(=O)N(CC)CC(=O)NCc1ccc(Cl)cc1	1.4	2%	18%[15.4 µM]	31	·	0.0
COc1ccccc1NC(=O)N[C@@H](Cc1c[nH]c2ccccc12)C(=O)NN	-0.5	5%	-27%	4	·	-10
CSc1ncccc1C(=O)NC1CCCCCC1	1.0	4%	?	-3	0.5%	-1.4
Cc1ccc(S(=O)(=O)CCc2nc3ccccc3n2CCC#N)cc1	-0.7	7%	-13%	-4	-4.6%	3.0
COc1ccc(NC(=O)c2sccc2C)c([N+](=O)[O-])c1	-0.9	3%	-14%	3	-0.7%	-7.2
O=C(C1CCN(S(=O)(=O)c2ccccc2)CC1)N1CCc2ccccc21	-0.1	-4%	11%[15.4 µM]	12	-3.8%	·
